PINK1 expr mod: modulators of PINK1 expression; 0.2% of 410,000 active; PINK1 immunofluorescence, high-content cytometry, 24 h; AID 624263; Potency, µM (doses to about 76.6 µM), without a hit: at the highest dose activation (PINK1 increase), most hits filed as activators; active = well fitted activation curve with a large enough effect; inconclusive = small, poorly fitted or top-dose-only effect; inactive = flat fitted curve, though single readings scatter; cell line not stated here;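 note: potency is the fitted concentration of half-maximal effect; % of control where 0% means no effect; nearly all actives have a fitted effect of over 65% in size; a mitochondrial uncoupler was the plate control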
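Fluorescence from anti-PINK1 antibody, together with nuclear and cell stains, was scanned on a laser-scanning cytometer. Before staining, stable-line cells were incubated 24 hours with compounds at 5 concentrations; primary antibody 12 h at 10 degrees C.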
Sfp inh: Sfp phosphopantetheinyl transferase inhibition; Potency, µM, for inactives: max response, negative = inhibition, hits mostly inhibitors; Biochemical Sfp PPTase activity, qHTS; 3.5% of 310,000 active; Q9F4F7; active = well fitted inhibition curve with a large enough effect; inconclusive = small, poorly fitted or top-dose-only effect, or another doubt; inactive = no such curve, though single readings can be large or run the other way;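 note: the enzyme is Sfp with the accession as filed and its product quenches rhodamine fluorescence; potency is the fitted concentration of half-maximal effect; 0% = enzyme reaction without inhibitor and -100% = no enzyme wells; top concentration of the series not given in the record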
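After 15 min at room temperature with compound, 15 nM Sfp received 5 uM rhodamine-CoA plus 12.5 uM BHQ-2-ybbR (50 mM Hepes pH 7.6, 10 mM MgCl2). Rate came from the fluorescence difference over 30 min, ex 525/em 598 nm.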
TRPV1 potentiator: human TRPV1 potentiation. Q8NER1. TRPV1-expressing cells, Fluo-8 calcium influx, capsaicin EC20 potentiation; host cell line not named in the record; control for the full effect not named in the record. potentiation, % at 8.33 µM. 0.02% of 320,000 active. AID 540277; active means potentiation above 80%; inconclusive means 30% to 80%; inactive means below 30%; note: 0% is about no effect
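Fluo-8 calcium influx in TRPV1-expressing cells, kinetic read (ex 480/em 520 nm). Compound added and read 3 min for agonist activity, followed by capsaicin at EC20 final and 2 min further read for enhancement.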
D2 potentiator: human D2 receptor positive allosteric modulation. AID 624464. DiscoveRx D2 beta-arrestin cells, luminescence, 90 min; 100% = 57 uM dopamine signal. 0.23% of 360,000 active. P14416. potentiation, % (test concentration not listed); active = potentiation of 50% or more; inconclusive = 30% to 50%; inactive = 30% or less;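 note: compound concentration not given in the record; tested on top of an EC20 dose of dopamine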
Target sequence (P14416 whole entry, looked up): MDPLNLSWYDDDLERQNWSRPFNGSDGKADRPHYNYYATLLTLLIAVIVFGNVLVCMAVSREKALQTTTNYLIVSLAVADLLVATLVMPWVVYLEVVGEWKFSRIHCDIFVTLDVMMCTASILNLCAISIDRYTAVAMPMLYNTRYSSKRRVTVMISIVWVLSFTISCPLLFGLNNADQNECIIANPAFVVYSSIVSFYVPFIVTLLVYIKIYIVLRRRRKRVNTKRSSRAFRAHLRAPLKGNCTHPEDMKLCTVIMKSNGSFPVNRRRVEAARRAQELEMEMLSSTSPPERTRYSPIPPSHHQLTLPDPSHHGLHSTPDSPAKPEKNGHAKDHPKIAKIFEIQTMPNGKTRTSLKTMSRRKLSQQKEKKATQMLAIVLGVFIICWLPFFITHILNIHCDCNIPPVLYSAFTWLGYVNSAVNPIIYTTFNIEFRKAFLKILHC
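D2 cells co-treated with compound plus 50 nM dopamine (EC20) for 90 min at 37 deg C to detect potentiation. Beta-arrestin recruitment was read as enzyme-fragment luminescence after 1 h at ambient temperature. Full response was set by 57 uM dopamine.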
CtBP-E1A inh: blocks the CtBP interaction with E1A; activity change, % (no concentration beside the values); AlphaScreen GST-E1A/His-CtBP binding, 1536-well; active compounds read low; control for the full effect not named in the record; AID 651724; 0.49% of 340,000 active; in the data active means activity change below about -65%; inconclusive means about -30% to -65%; inactive means above about -30%; note: % is set by controls: 0 for no effect and ±100 for the full control effect
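In 5 uL wells, 23 nL compound meets equimolar GST-E1A and His-CtBP (5X stock 125 nM each) for 2 h, 37 °C. Beads (5X, 50 ug/mL) then 1 h, 37 °C, dark.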
D2 agonist: human D2 receptor agonism in beta-arrestin assay; P14416; DiscoveRx PathHunter D2 beta-arrestin, luminescence, 90 min; 100% = 57 uM dopamine signal; activation, % (no concentration beside the values); 0.084% of 360,000 active; in the data active = activation above about 40%; inconclusive = about 15% to 40%; inactive = below about 15%; note: compound concentration not given in the record; the text of the record calls up to 30% inactive
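Agonist mode: compounds alone added to overnight-plated D2 PathHunter cells for 90 min at 37 C, with 57 uM final dopamine (EC100) defining full response. Beta-arrestin recruitment detected by chemiluminescent reagent, read after 1 h at ambient temperature.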
Six1-Eya2 inh: inhibitors of human Six1/Eya2 interaction | Q15475+O00167 | AlphaScreen GST-Six1/His-Eya2 binding, biochemical; active compounds read low; control for the full effect not named in the record | activity change, % (no concentration beside the values) | 0.56% of 360,000 active; in the data active = activity change below about -65%; inconclusive = about -30% to -65%; inactive = above about -30%; note: % is set by controls: 0 for no effect and ±100 for the full control effect
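GST-Six1 + His-Eya2 (5X stock: 250/500 nM); Tris pH 8.0, 300 mM NaCl, 0.05% BSA, 0.02% Tween 20; GSH donor/Ni acceptor beads; 1 h 37 °C dark; AlphaScreen readout.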
* = called active by the depositor; u = inconclusive; x = no result given; & = joins results of further samples; [ ] = another dose, or the depositor's remark. Hits appear at their usual frequency, and some 3.7% of all compounds hit somewhere here.

| molecule | PINK1 expr mod | Sfp inh | TRPV1 potentiator | D2 potentiator | CtBP-E1A inh | D2 agonist | Six1-Eya2 inh |
| --- | --- | --- | --- | --- | --- | --- | --- |
| CN(CC(=O)Nc1ccc(F)cc1)C(=O)c1ccc(N2C(=O)CCC2=O)cc1 | 0.3% | x | -6 | -1 | 2 | -0.3 | 2 |
| CCC(CC)C(=O)Nc1cccc(-c2nc3ccccc3o2)c1 | 23%[38.3 µM] | 13% | -6 | -9 | 9 | 2.0 | 0 |
| COc1ccc(-n2c(O)c(C=Nc3ccccc3)c3ccccc3c2=O)cc1OC | 20% | -1% | -20 | 2 | 11 | -4.5 | -3 |
| CC(=O)N1CCC(N(C(=O)Nc2c(F)cccc2F)C(C)C)CC1 | 1.9%&1.5% | -3% | -16 | -3 | 3 | -6.1 | -4 |
| Cc1cc(C)cc(C(=O)NCC(=O)OCC(=O)c2c(N)n(C)c(=O)n(C)c2=O)c1 | 2.1% | x | 2 | -2 | -6 | 0.6 | -5 |
| Cc1cc(Cl)ccc1C(=O)C1CCCN(C(=O)c2snnc2C)C1 (stereo not given) | 1.8% | -8% | -17 | -2 | 3 | -2.4 | -1 |
| Brc1ccc(CN2CCN(c3ccccn3)CC2)s1 | -1.7%[38.3 µM] | -16% | -1 | u | 6 | 70* | -2 |
| CCN1C(=O)[C@H]2[C@@H](c3ccc(C)cc3)N3C(=O)N(c4ccccc4)C(=O)[C@@]3(CC)[C@H]2C1=O | -0.3% | 20% | 0 | 10 | 4 | 1.1 | 6 |
| Cc1cc(NC(=O)CN2C(=O)c3ccccc3C2=O)no1 | 0.7% | 20% | 1 | 0 | 13 | -1.7 | 3 |
| CC(NC(=O)COC(=O)c1cc([N+](=O)[O-])ccc1N1CCOCC1)c1ccccc1 (stereo not given) | 1.1% | 12% | 0 | -1 | -1 | -0.2 | -1 |
| Cc1ccc(OC(C)C(=O)Nc2ccc3c(c2)n(C)c(=O)n3C)c(C)c1 (stereo not given) | 1.9% | -8% | 2 | -31 | x | -3.7 | 3 |
| O=C(NCc1ccccc1)NC12CC3CC(CC(C3)C1)C2 | 6.0% | -2% | -18 | -7 | 8 | -3.1 | 14 |
| O=C(c1cccc2ccccc12)N1CCN(Cc2ccccc2F)CC1 | 0.2% | -2% | -18 | 0 | 9 | -2.9 | -2 |
| O=C(O)CC/C(=N\NC(=O)c1ccccc1Br)c1ccccc1 | 0.7% | 1% | -3 | -14 | 2 | -3.5 | -1 |
| CCCNC(=O)c1onc(CSc2ccc(F)cc2)c1C(=O)NCC1CC1 | 0.5% | x | 25 | -6 | 17 | -1.7 | 12 |
| CC(C)C(NC(=O)c1ccc(Cl)cc1Cl)C(=O)NCCc1ccccn1 (stereo not given) | 0.3% | x | 26 | -18 | 4 | -5.4 | 1 |
| O=C(OCc1cn([C@H]2CN(C(=O)c3cccs3)[C@@H](c3ccc(Cl)cc3)C[C@@H]2O)nn1)c1ccccc1 | 0.1% | x | x | -10 | 3 | -3.3 | -10 |
| CC[C@]12c3[nH]c4cc(-c5ccco5)ccc4c3CCN1C(=O)[C@@H](CC(=O)NCCCn1ccnc1)C[C@@H]2C(=O)N1CCN(C(=O)C2CC2)CC1 | -1.1% | x | x | 2 | -3 | -0.7 | -1 |
| C=CC[C@@H](CC(=O)N(CCO)Cc1ccccc1)C(=O)N[C@@H](C)COC(=O)[C@@H](CC=C)CC(=O)OC(C)(C)C | 1.1% | x | x | 2 | 0 | 3.7 | 23 |
| CSc1cccc(N2CC(C(=O)NCCC3=CCCCC3)CC2=O)c1 (stereo not given) | -1.1% | x | -11 | -15 | 0 | -2.4 | 5 |
| O=C(COc1cc(Cl)c(Cl)cc1Cl)NCCc1ccccn1 | 0.5% | 10% | -6 | -35 | 8 | -0.2 | -8 |
| Cc1cc(Cl)ccc1OC(C)c1nnc(N)s1 (stereo not given) | -5.5%[38.3 µM] | 12% | u | 3 | 1 | -1.1 | 1 |
| COc1ccc(C2CC(c3ccccc3F)=NN2c2ccc(S(N)(=O)=O)cc2)cc1 (stereo not given) | 1.3% | x | x | -3 | 37 | 0.9 | 35 |
| O=C(NNC(=O)c1ccccc1C(=O)O)c1cc2ccccc2o1 | 0.4% | 12% | -15 | -7 | x | -0.1 | 5 |
| CS(=O)(=O)Nc1ccc(C(=O)NCCSCc2ccccc2)cc1 | -0.9% | 26% | -5 | -9 | 0 | -3.6 | 1 |
| CCNC(=S)N1CCN(c2cccc(C(F)(F)F)c2)CC1 | -1.6% | 16% | -19 | -11 | -7 | 0.9 | -4 |
| CCOC(=O)/C=C/C(=O)Nc1ccccc1-c1ccccc1NC(=O)/C=C/C(=O)OCC | 20% | 6% | 0 | -22 | -3 | -0.4 | 0 |
| Nc1c(C(=O)CSc2nnc(-c3ccccc3F)o2)c(=O)[nH]c(=O)n1C1CC1 | 5.4% | x | -1 | 1 | x | -2.3 | 3 |
| COc1ccc(-c2cn(CCC(=O)O)c(C)n2)cc1 | 0.5% | x | 10 | -6 | 6 | -0.6 | 6 |
| COc1ccc(S(=O)(=O)N(CC(=O)NC2CC2)C2CCCCC2)cc1Cl | 0.3%[38.3 µM] | 7% | -20 | -8 | -3 | -0.2 | -4 |
| O=C(COc1ccc(Cl)cc1)NCC(=O)N/N=C/c1cccs1 | 5.5% | 3% | 2 | -6 | x | -4.6 | 14 |
| COc1ccc(C(=O)/C(C)=N/O)cc1OC | x | 3% | -10 | -5 | 7 | 2.0 | 0 |
| C=CCNC(=S)N(CC=C)C1CCS(=O)(=O)C1 (stereo not given) | 3.4% | -14% | 5 | -29 | 9 | -2.9 | 3 |
| Cc1cc(NC(=O)CSc2nc(-c3cccs3)nc3ccccc23)no1 | 6.4% | x | 5 | -1 | -4 | 1.6 | -4 |
| CCCCC(=O)OCC(=O)N1N=C(c2c[nH]c3ccccc23)C(O)C1c1ccc(OC)cc1 (stereo not given) | -1.5% | 5% | u | -8 | -5 | 2.9 | -15 |
| Cc1cc(OCc2nnc(SCC(=O)O)n2-c2ccccc2)ccc1Cl | -1.3% | 9% | 8 | -1 | 7 | 0.3 | 3 |
| CC(=C/c1ccco1)/C=N/NC(=O)c1nnn(-c2nonc2N)c1CN(C)C | 2.7% | -6% | 12 | -4 | -2 | 2.7 | -13 |
| COc1ccc(S(=O)(=O)Nc2ccc3c(c2)N(C(C)=O)CCC3)cc1 | 8.2% | x | 15 | -6 | 10 | -0.6 | -3 |
| Cc1ccc(C(=O)c2c3ccccc3[n+]([O-])n2CCO)cc1 | 1.0% | x | 10 | -6 | 0 | 0.3 | -3 |
| COc1ccc(-c2noc3c2-c2nc(-c4ccc(C)cc4)sc2CC3)cc1 | 5.9% | x | x | -7 | 7 | -1.5 | 8 |
| CCOC(=O)c1sc(NC(=O)CNC(=O)Cn2cnc3sc(C)c(C)c3c2=O)nc1C | -0.3% | -8% | -5 | -2 | 0 | -2.7 | 0 |
| CCN(CC)C(=O)[C@H]1C[C@H](CC(=O)NCCc2ccccn2)C(=O)N2CCc3c([nH]c4cc(CCC(=O)N(C)C)ccc34)[C@]12C | -0.4% | x | x | -8 | 0 | -1.6 | -1 |
| CNC(=S)N1CCN(c2ccccc2OC)CC1 | -2.7% | -8% | 5 | 1 | -10 | -0.2 | -1 |
| Cc1cccc(C(=O)NNS(=O)(=O)c2ccccc2[N+](=O)[O-])c1 | 1.9% | 6% | -8 | 27 | 7 | 8.3 | 12 |
| CC(=O)c1ccc(N2C(=O)[C@@H]3C(CCC(N)=O)NC4(C(=O)Nc5c4ccc(Cl)c5C)[C@@H]3C2=O)cc1 (stereo not given in full) | 4.1% | 6% | -4 | -10 | 11 | -5.1 | 1 |
| O=C(Cc1cccs1)Nc1ccc(-c2nc3ccccc3[nH]2)cc1 | 8.6% | 6% | 5 | 2 | -2 | -0.3 | -1 |
| O=C(O)c1cc(S(=O)(=O)Nc2cc(Cl)ccc2Oc2ccccc2)ccc1O | 0.4% | x | -11 | -2 | 0 | 6.4 | 8 |
| C=CCSc1nnc(CCc2ccccc2)n1N | -0.3% | x | -11 | 7 | 5 | -2.1 | 1 |
| CCSc1nnc(NC(=O)c2nc(S(=O)(=O)Cc3ccc(F)cc3)ncc2Cl)s1 | -1.7% | -12% | u | -1 | 1 | 4.1 | 13 |
| Cc1ccc(CN(Cc2cc3cccc(C)c3[nH]c2=O)C(=S)NCCCN(C)C)cc1 | -0.4% | -6% | 8 | -19 | -6 | -4.0 | -12 |
| Cc1ccc(C(=O)Nc2c3c(nn2C(C)(C)C)CS(=O)(=O)C3)cc1C | 1.3%[38.3 µM] | 16% | 6 | -6 | 2 | -2.5 | 6 |
| COc1ccc(N(CC(=O)Nc2ccc(C)cc2)S(=O)(=O)c2c(C)noc2C)cc1 | 2.1% | 16% | 24 | -12 | x | -1.0 | -3 |
| Cc1csc2c(N3CCN(C(=S)Nc4ccc(C(F)(F)F)cc4)CC3)ncnc12 | 14% | 9% | 7 | -26 | x | -1.7 | -19 |
